FGF22 binding – binders of recombinant human FGF22 by thermal shift; Q9HCT0; SYPRO orange fluorescence; percent of sucrose octasulfate shift, DMSO zero; calls only at 9.99 µM; 1.5% of 340,000 active;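 active = melting point raised past a set limit in the mean and every replicate; three in four hits are not shown here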
Target sequence (Q9HCT0 whole entry, looked up): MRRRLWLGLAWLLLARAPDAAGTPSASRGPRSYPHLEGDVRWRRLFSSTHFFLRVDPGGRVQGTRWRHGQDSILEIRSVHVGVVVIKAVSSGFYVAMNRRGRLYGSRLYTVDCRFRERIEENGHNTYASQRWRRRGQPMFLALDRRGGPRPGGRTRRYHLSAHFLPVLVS
rRNA inh HTS – inhibitors of bacterial rRNA selective over humanized ribosomes | E. coli WT GFP vs humanized-ribosome RFP mutants, fluorescence, 24 h; stronger effect = lower value; DMSO median 0, no signal -100 | 1.6% of 350,000 active | GFP signal change (wild-type ribosome), % (test concentration not listed) | AID 720706;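 active = significant combined selectivity score with lowered wild-type GFP, culture density cut under 30%, mutant RFP and density less affected; inactive = any of these conditions unmet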; note: one replicate is shown; some compounds called inactive have numbers as strong as hits
AF4-AF9 inh – blocks AF4 peptide binding to human AF9; inhibition, % at 10 µM; AID 651704; 0.47% of 350,000 active; AlphaScreen, biotin-AF4 peptide binding to FLAG-AF9;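 active = every replicate reaching a set inhibition limit, whatever the replicate mean, cut at about 25% in these data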;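 note: 0% = plate neutral control median and 100% = total signal loss; the record names both 10 and 1 µM as test concentration; the first replicate is given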
Target sequence (P42568 whole entry, looked up): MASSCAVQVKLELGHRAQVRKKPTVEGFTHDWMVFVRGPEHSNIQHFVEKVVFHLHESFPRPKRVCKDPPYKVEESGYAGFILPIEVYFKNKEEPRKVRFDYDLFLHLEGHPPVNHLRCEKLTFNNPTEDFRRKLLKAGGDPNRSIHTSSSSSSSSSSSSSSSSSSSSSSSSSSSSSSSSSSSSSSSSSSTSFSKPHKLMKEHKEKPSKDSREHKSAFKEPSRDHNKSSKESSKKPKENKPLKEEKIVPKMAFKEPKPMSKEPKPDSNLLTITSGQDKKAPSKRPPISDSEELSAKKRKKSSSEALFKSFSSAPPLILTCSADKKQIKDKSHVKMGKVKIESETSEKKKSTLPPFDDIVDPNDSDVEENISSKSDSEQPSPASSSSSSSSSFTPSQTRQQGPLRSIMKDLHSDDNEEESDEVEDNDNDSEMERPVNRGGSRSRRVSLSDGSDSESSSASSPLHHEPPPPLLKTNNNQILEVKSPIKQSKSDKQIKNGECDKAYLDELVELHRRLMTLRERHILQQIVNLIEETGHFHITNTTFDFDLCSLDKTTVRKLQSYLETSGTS
rRNA inh HTS OD600 – also measured in rRNA inh HTS; calls as there; OD600 change, %; measured here: OD600 growth;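 optical density of the mix in the first replicate; 0 = DMSO median and -100 = no signal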
rRNA inh HTS RFP – further read-out of rRNA inh HTS, marked with its call; RFP signal change, %; measured here: RFP humanized mutant strains;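 first replicate; 0 = DMSO median and -100 = no signal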
* hit, by the source's call; i = inactive. This is a subset; count on the stated rates, not on these rows.

SMILES,rRNA inh HTS OD600,rRNA inh HTS,AF4-AF9 inh,FGF22 binding,rRNA inh HTS RFP
COc1ccc(S(=O)(=O)N2CCC(C(=O)N[C@@H](C)C(=O)NCc3ccccn3)CC2)cc1,-2,3,0.2,i,-4.7
CO[C@H]1CC[C@H]2CCOc3ccc(C#N)cc3C(=O)N(C)C[C@H](c3ccccc3)CC(=O)N(C)C[C@@H]1O2,5,2,0.2,i,-1.1
C[C@@H]1CN([C@H](C)CO)C(=O)c2cc(NS(=O)(=O)c3cccs3)ccc2O[C@@H](C)CCCCO[C@@H]1CN(C)S(=O)(=O)c1ccc(Cl)cc1,-2,-2,2.2,i,-0.1
COc1ccc(S(=O)(=O)N(C)C[C@@H]2Oc3ccc(NC(=O)CCCCCC(=O)Nc4ccccc4N)cc3C(=O)N([C@@H](C)CO)C[C@H]2C)cc1,-3,-7,-0.9,i,0.4
COc1ccccc1C(=O)Nc1ccc2c(c1)OC[C@H](C)N(C)C[C@@H](C)[C@@H](OC)CN(C)C2=O,-2,2,0.7,i,-2.1
CN(C)CCNc1ncnc2c1ncn2[C@H]1CN(C)C[C@@H](CO)O1,11,11,-1.2,i,0.3
CC(C)CC(N)c1csc(NC(=O)Nc2ccccc2-c2ccccc2)n1 (centres undefined),-81,-62,13,i,-19
CO[C@H]1CN(C)C(=O)c2cc(NC(C)=O)ccc2OC[C@H](C)N(C(=O)C2CC2)C[C@@H]1C,4,3,0.1,i,3.2
C[C@@H]1CCCCO[C@@H](CN(C)Cc2ccccc2)[C@@H](C)CN([C@@H](C)CO)C(=O)c2cc(NC(=O)Cc3ccccc3)ccc2O1,-3,1,3.3,i,-2.3
CCCC(=O)Nc1ccc2c(c1)C(=O)N(C)C[C@@H](OC)[C@@H](C)CN(Cc1ccccn1)[C@@H](C)CO2,-3,-1,-5.9,i,-0.1
CCC(=O)N(C)C[C@@H]1Oc2ncc(C#Cc3ccccc3)cc2C(=O)N([C@@H](C)CO)C[C@H]1C,-6,-4,0.7,i,-3.4
C[C@@H](NC(=O)C[C@H]1C[C@H]2c3cc(NC(=O)C4CCOCC4)ccc3O[C@H]2[C@@H](CO)O1)c1ccccc1,-1,1,-3.4,i,-1.1
C[C@@H]1CN([C@@H](C)CO)C(=O)c2ccccc2-c2ccccc2CO[C@@H]1CN(C)C(=O)Nc1cccc(F)c1,-2,-4,-0.7,i,2.0
COc1ccc(NC(=O)Nc2ccc3c(c2)[C@H]2C[C@H](CC(=O)NCc4ccncc4)O[C@H](CO)[C@H]2O3)cc1,9,1,-2.2,i,-1.0
CCC(=O)N1CC2(C1)CN(C(=O)Nc1ccc(F)cc1)[C@H](CO)c1c2c2ccc(OC)cc2n1C,-1,0,-4.0,i,2.5
C[C@H]1CCCCO[C@@H](CN(C)C(=O)c2ccccc2)[C@@H](C)CN([C@@H](C)CO)C(=O)c2cc(NC(=O)Nc3ccc(F)cc3)ccc2O1,1,-2,-11,i,11
CO[C@@H]1CC[C@@H]2CCN(C)C(=O)C[C@@H](c3ccccc3)CN(C)C(=O)c3cccc(C#N)c3OC[C@H]1O2,-8,-2,22,i,-0.2
COc1cc(-c2coc3c(C(=O)NCc4ccccc4)cccc23)ccc1O,-54,-23,0.8,i,2.2
C[C@@H]1CN([C@@H](C)CO)S(=O)(=O)c2ccc(C#CC3CC3)cc2O[C@H]1CN(C)C(=O)c1cccnc1,-37,-10,-1.2,i,-4.9
O=S1(=O)CCN(C2CC2)CC1,11,13,-2.7,i,0.2
O=C(CC(CC(=O)c1ccccc1)c1ccco1)c1ccccc1,-40,-14,0.6,i,-5.6
CCC(=O)N(C)C[C@H]1Oc2cc(C3=CCCC3)ccc2S(=O)(=O)N([C@@H](C)CO)C[C@@H]1C,-5,1,-3.8,i,-0.8
CC1(C(=O)NCc2ccccn2)CCN1C(=O)Cc1ccc(Cl)cc1Cl (centres undefined),12,6,-0.5,i,-1.8
CCCNC(=O)N1C[C@H](O)COC[C@@H]2O[C@@H](CC(=O)N3CCCCC3)CC[C@H]21,2,2,-2.8,i,0.2
CC(C)NC(=O)N(C)C[C@@H]1Oc2cc(-c3cncnc3)ccc2S(=O)(=O)N([C@H](C)CO)C[C@H]1C,5,1,-0.3,i,-2.5
O=C(C[C@@H]1C=C[C@@H](NC(=O)c2ccncc2)[C@@H](CO)O1)NCC1CC1,11,0,-0.4,i,-1.0
CO[C@H]1CN(C)C(=O)c2ccc(NC(=O)C3CCC3)cc2OC[C@H](C)N(Cc2ccccn2)C[C@H]1C,-8,0,0.0,i,-1.9
CC(C)C[C@H]1CNC(=O)C(=O)N1C[C@H]1CCCN1C[C@H](CC(C)C)N1C[C@H](Cc2ccccc2)N(CCc2ccccc2)C(=O)C1=O,5,10,-2.8,i,9.5
COc1cccc(NC(=O)N[C@@H]2CC[C@@H](CC(=O)N3CCN(C)CC3)O[C@H]2CO)c1,0,0,0.3,i,-3.7
C[C@H](CO)N1C[C@H](C)[C@H](CN(C)C(=O)Nc2ccccc2)Oc2ncc(C#Cc3ccccc3)cc2C1=O,-20,-7,0.8,i,17
COc1cccc(NC(=O)N[C@H]2C=C[C@H](CC(=O)NCc3ccccn3)O[C@@H]2CO)c1,-4,3,-0.6,i,-1.4
O=C(O)C(Cc1ccccc1)N1C(=O)C2C3CCC(C3)C2C1=O (centres undefined),14,1,-1.7,i,3.0
NC(Cc1ccccc1)c1csc(NC(=O)Nc2ccccc2Oc2ccccc2)n1 (centres undefined),-61,-30,1.8,i,6.0
O=C(N[C@@H]1CC[C@H](CCNC(=O)C2CCCCC2)O[C@@H]1CO)c1ccccn1,-3,0,2.6,i,-2.7
CO[C@H]1CN(C)C(=O)c2ccc(NC(=O)c3cc(C)on3)cc2OC[C@@H](C)N(C(=O)C2CC2)C[C@H]1C,-1,-1,-0.5,i,-0.7
CN1C(=O)c2cc(NS(=O)(=O)c3cccc(F)c3)ccc2OC[C@H]2O[C@H](CC(=O)NCCN3CCCCC3)CC[C@@H]21,13,1,0.0,i,-3.0
C[C@@H]1CCCCO[C@H](CN(C)C(=O)Cc2ccccc2)[C@H](C)CN([C@H](C)CO)C(=O)c2cc(NC(=O)Nc3ccc(F)cc3)ccc2O1,-4,4,3.6,i,2.0
C/C=C/c1ccc2c(c1)O[C@H](CN(C)Cc1ccncc1)[C@@H](C)CN([C@H](C)CO)S2(=O)=O,-6,-12,2.2,i,-3.5
CCC(=O)N(CC)C[C@H]1[C@H](c2ccc(-c3cccnc3)cc2)[C@@H](CO)N1C(C)=O,1,2,-2.0,i,-0.3
C[C@H](CO)N1C[C@H](C)[C@@H](CN(C)C(=O)c2ccccc2)OCCCC[C@H](C)Oc2ccc(NC(=O)Cc3ccccc3)cc2C1=O,-2,1,-2.8,i,1.1
C[C@H]1CN([C@@H](C)CO)C(=O)Cc2cc(NC(=O)C3CCCCC3)ccc2O[C@H]1CN(C)C(=O)Nc1ccc2c(c1)OCO2,-3,0,-1.8,i,-2.8
CCCC(=O)Nc1ccc2c(c1)C(=O)N(C)C[C@H](OC)[C@H](C)CN(C(=O)C1CCCC1)[C@@H](C)CO2,-3,0,1.2,i,-0.2
C[C@H](CO)N1C[C@H](C)[C@@H](CN(C)S(=O)(=O)c2ccc(Cl)cc2)OCc2ccccc2-c2ccccc2C1=O,-7,-2,6.0,i,9.6
C[C@H](CO)N1C[C@H](C)[C@H](CN(C)Cc2ccncc2)Oc2c(NC(=O)c3nc4ccccc4s3)cccc2C1=O,-7,-5,6.9,i,-2.9
COc1ccc(NC(=O)N(C)C[C@H]2Oc3cc(-c4ccc(C)cc4)ccc3S(=O)(=O)N([C@@H](C)CO)C[C@@H]2C)cc1,14,3,0.0,i,-0.2
CO[C@H]1CN(C)C(=O)c2ccc(NS(C)(=O)=O)cc2OC[C@@H](C)N(Cc2cncnc2)C[C@H]1C,1,2,-12,i,-2.4
COc1cccc(S(=O)(=O)N2C[C@@H](O)COC[C@H]3O[C@H](CC(=O)Nc4ccccc4)CC[C@@H]32)c1,-13,-4,-2.6,i,5.4
O=C(C[C@@H]1CC[C@@H]2[C@H](COC[C@@H](O)CN2C(=O)Nc2ccc(Cl)c(Cl)c2)O1)NCc1ccccc1,-75,-60,0.1,i,-18
Cc1ccc(C(=O)Nc2c(-c3ccc(Cl)cc3)[nH][nH]c2=O)cc1,-7,-4,-0.3,i,0.8
CCN(CC)C(=O)c1ncn2c1C(=O)N[C@@H](C)C2,6,15,-0.4,i,5.2

Quoted at random: 6 entries already listed.
SMILES,rRNA inh HTS OD600,rRNA inh HTS,AF4-AF9 inh,FGF22 binding,rRNA inh HTS RFP
O=C(C[C@@H]1CC[C@@H]2[C@H](COC[C@@H](O)CN2C(=O)Nc2ccc(Cl)c(Cl)c2)O1)NCc1ccccc1,-75,-60,0.1,i,-18
CCN(CC)C(=O)c1ncn2c1C(=O)N[C@@H](C)C2,6,15,-0.4,i,5.2
Cc1ccc(C(=O)Nc2c(-c3ccc(Cl)cc3)[nH][nH]c2=O)cc1,-7,-4,-0.3,i,0.8
COc1cccc(S(=O)(=O)N2C[C@@H](O)COC[C@H]3O[C@H](CC(=O)Nc4ccccc4)CC[C@@H]32)c1,-13,-4,-2.6,i,5.4
CO[C@H]1CN(C)C(=O)c2ccc(NS(C)(=O)=O)cc2OC[C@@H](C)N(Cc2cncnc2)C[C@H]1C,1,2,-12,i,-2.4
COc1ccc(NC(=O)N(C)C[C@H]2Oc3cc(-c4ccc(C)cc4)ccc3S(=O)(=O)N([C@@H](C)CO)C[C@@H]2C)cc1,14,3,0.0,i,-0.2

The list continues:
SMILES,rRNA inh HTS OD600,rRNA inh HTS,AF4-AF9 inh,FGF22 binding,rRNA inh HTS RFP
C[C@@H]1CN([C@H](C)CO)C(=O)Cc2cc(NS(=O)(=O)c3cn(C)cn3)ccc2O[C@@H]1CN(C)C(=O)Nc1ccc(C(F)(F)F)cc1,10,3,-1.8,i,-1.3
CCOC(=O)C1=CCN(S(=O)(=O)c2cccc(Cl)c2)C1c1ccc(C)cc1 (centres undefined),-15,-9,-1.0,i,-4.0
C[C@H](CO)N1C[C@H](C)[C@@H](CN(C)S(=O)(=O)c2ccccc2)Oc2ccc(NC(=O)CCCCCC(=O)Nc3ccccc3N)cc2CC1=O,2,0,-1.6,i,-0.5
CCCN1C[C@@H](C)[C@@H](OC)CN(C)C(=O)c2cc(NS(=O)(=O)c3ccccc3)ccc2OC[C@H]1C,9,3,-1.7,i,-0.2
O=C1NC[C@H](Cc2ccc(O)cc2)N(C[C@@H]2CCCN2C[C@H](Cc2ccc(O)cc2)N2C[C@H](Cc3ccccc3)N(CC3CCCCC3)C(=O)C2=O)C1=O,-40,-38,-1.8,i,-3.7
CCCC(CNC(C)=O)(C1=CCCCC1)c1ccccc1 (centres undefined),-36,-22,1.7,i,-6.6
COc1cccc(-c2ccc([C@H]3[C@@H](CO)N4CCCCN(C(=O)c5ccc6c(c5)OCO6)C[C@H]34)cc2)c1,-44,-10,2.3,i,12
Cc1cc(C(=O)Nc2cccc3c2O[C@@H](CN(C)Cc2ccc(Oc4ccccc4)cc2)[C@H](C)CN([C@@H](C)CO)C3=O)n(C)n1,-6,-2,-12,i,-2.2
C[C@H](CO)N1C[C@H](C)[C@H](CN(C)C(=O)C2CCCCC2)Oc2ncc(-c3ccccc3)cc2C1=O,-5,-1,-2.4,i,1.6
CC(C)Oc1ccc(S(=O)(=O)N2CCCCC2)cc1NC(=O)C1=NN(c2ccccc2)C(=O)CC1,9,2,2.7,i,2.4
CCC(=O)NC[C@@H]1N[C@@H](CO)[C@H]1c1ccc(-c2cccc(C#N)c2)cc1,-6,-4,-1.0,i,0.8
C[C@H](CO)N1C[C@H](C)[C@@H](CN(C)C(=O)Nc2ccc(C(F)(F)F)cc2)Oc2ccc(NS(=O)(=O)c3ccc(F)cc3)cc2CC1=O,-13,-1,0.7,i,-0.9
CC(=O)Nc1cccc(NC(=O)c2ccccc2Cl)c1,6,12,-3.5,i,5.5
CO[C@H]1CN(C)C(=O)c2ccc(NC(C)=O)cc2OC[C@H](C)N(C(=O)c2ccncc2)C[C@@H]1C,0,2,-2.9,i,-2.5
C[C@@H]1CN([C@H](C)CO)C(=O)c2cc(C3=CCCC3)cnc2O[C@H]1CN(C)S(C)(=O)=O,7,-2,-3.6,i,-3.1
C[C@@H]1CN([C@H](C)CO)C(=O)c2cc(NC(=O)NC3CCCCC3)ccc2O[C@H]1CN(C)C(=O)Nc1ccccc1,10,5,-7.8,i,2.7

An excerpt from above in order of their number in rRNA inh HTS, largest number first:
SMILES,rRNA inh HTS OD600,rRNA inh HTS,AF4-AF9 inh,FGF22 binding,rRNA inh HTS RFP
O=S1(=O)CCN(C2CC2)CC1,11,13,-2.7,i,0.2
CO[C@H]1CN(C)C(=O)c2ccc(NC(C)=O)cc2OC[C@H](C)N(C(=O)c2ccncc2)C[C@@H]1C,0,2,-2.9,i,-2.5
C[C@@H]1CN([C@H](C)CO)C(=O)c2cc(NS(=O)(=O)c3cccs3)ccc2O[C@@H](C)CCCCO[C@@H]1CN(C)S(=O)(=O)c1ccc(Cl)cc1,-2,-2,2.2,i,-0.1
